# NPYLR7 agonist: activates Aedes aegypti NPYLR7 receptor; activation, % at 10 µM; HEK293T NPYLR7/Galpha15, GCaMP6s calcium fluorescence; AID 1259423; hit rate 0.15% among 270,000; in the data active means activation above about 40%;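 further: 0% = vehicle and 100% = reference agonist at the receptor; some compounds past the cut are filed as inactive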
# NPYLR7 agonist max-min: also measured in NPYLR7 agonist; calls as there; activation, %; measured here: Max-Min RFU normalised activation; some inactives read as strong as hits;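 span of the calcium signal over five minutes; 0% = vehicle and 100% = native peptide agonist; compound fluorescence can raise it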
# The depositor's hits bear a star; & = joins results of further samples.
# The line under a structure holds: NPYLR7 agonist, NPYLR7 agonist max-min
CN(C)C1CCCN(S(=O)(=O)c2ccc(Cl)nc2Cl)C1 (stereo not given)
    12.0, 3.8
CCCCCNC(=O)c1sc2ncn(C)c(=O)c2c1C
    1.7, -2.8
COc1ccc2c(c1)C=C(C(=O)NC(C#N)c1ccccc1F)CO2 (stereo not given)
    7.1, 6.5
Cc1nnc(-c2cc3ccccc3n2CC(=O)Nc2ccc(Br)cc2)o1
    -5.5, -5.2
CCOC(=O)c1nn(-c2ccccc2C)c(=O)cc1NCC1CCCO1 (stereo not given)
    5.4, 1.6
CCSc1nc2c([nH]c3ccccc32)c(=O)n1CC
    6.4, 5.8
CCC(C)(C)C(=O)Nc1cccc(CS(=O)C(C)(C)C)c1 (stereo not given)
    -1.3, -4.6
CC(C)CN1C(=O)N(C)C(=O)C12CCN(Cc1cn(-c3ccccc3)nc1-c1ccccc1)CC2
    11.4, -2.0
CCn1ncnc1CN1CCC(CNC(C)=O)CC1
    6.0, -1.5
COc1ccc(N2C3=[N+](CCCS3)CC2(O)c2ccc(C)cc2)cc1 (stereo not given)
    3.8, 4.9
CCCCCCC(=O)N(CC(=O)Nc1cc(C(C)(C)C)nn1-c1ccc(Cl)c(Cl)c1)Cc1ccco1
    1.8, 10.6
CCC/C=C/c1ccc(C(=O)NC2CC2)cc1
    -3.7, 4.5
Cc1ccc(-n2[nH]c(-c3ccccc3)cc2=O)cc1
    1.1, 0.7
CCOCCn1c(=O)c2c(nc3n2CCN3c2ccc(CC)cc2)n(C)c1=O
    5.5, 2.2
Cc1n[nH]c(C)c1CCCN(C)c1nc(N(C)C)nc2c1CCNC2
    -15.3, -17.0
O=C(NCCn1nc(-c2ccc(F)cc2)ccc1=O)c1cccc(C(F)(F)F)c1
    -7.0, -7.0
Cc1cc(C)n(-c2ccc(C(=O)Nc3ccccc3C)cc2)n1
    0.9, -0.7
O=C(CNC1CCCCC1)Nc1c(Cl)[nH]c2ccccc12
    -1.7, -5.1
Cc1ccc(Cn2nnc3c(=O)n(CC(=O)Nc4ccccc4C)cnc32)cc1
    4.6, 3.3
Cc1cc(C)c(-n2c(O)c(C=Nc3ccc(F)cc3)c(=O)[nH]c2=O)c(C)c1
    4.6, 2.9

# 4 entries from above, field by field.
Cc1ccc(-n2[nH]c(-c3ccccc3)cc2=O)cc1
  NPYLR7 agonist: 1.1
  NPYLR7 agonist max-min: 0.7

CCOCCn1c(=O)c2c(nc3n2CCN3c2ccc(CC)cc2)n(C)c1=O
  NPYLR7 agonist: 5.5
  NPYLR7 agonist max-min: 2.2

Cc1n[nH]c(C)c1CCCN(C)c1nc(N(C)C)nc2c1CCNC2
  NPYLR7 agonist: -15.3
  NPYLR7 agonist max-min: -17.0

O=C(NCCn1nc(-c2ccc(F)cc2)ccc1=O)c1cccc(C(F)(F)F)c1
  NPYLR7 agonist: -7.0
  NPYLR7 agonist max-min: -7.0

# (continued)
# The line under a structure holds: NPYLR7 agonist, NPYLR7 agonist max-min
CN(C(=O)Cc1ccc2ccccc2c1)[C@@H]1CNC[C@H]1O
    -2.0, 0.1
FC(F)(F)c1cccc(Oc2ncccc2CNc2ncccn2)c1
    3.0, -2.4
CN1CC(=O)N(CN2CCN(S(=O)(=O)c3ccc4c(c3)OCCCO4)CC2)C1=O
    4.4, 11.8
COc1ccc(OC)c(Cc2nnc(CCC(=O)N3CCN(C4CCCC4)CC3)o2)c1
    3.1, -0.6
CC1CC(C)CN(S(=O)(=O)c2cc(C(=O)O)c(Cl)s2)C1 (stereo not given)
    -6.1, -8.0
CCOC(=O)C1(Cc2ccc(OC)cc2)CCN(C(=O)CCc2ccccc2OC)CC1
    8.2, 7.2
O=C(N=Nc1c(O)[nH]c2ccccc12)c1cc(-c2ccc3c4c(cccc24)CC3)n[nH]1
    1.9, 7.2
CCOC(=O)c1nc2cc(C)c(C)cc2nc1N1CCN(S(C)(=O)=O)CC1
    14.9, 7.7
Cc1nc(C(C)C)sc1C(=O)N1CC[C@@H](c2ccc3c(c2)OCO3)[C@H](O)C1
    3.3, 0.4
CCc1ccc(N2CC(C)Cn3c2nc2c3c(=O)n(CC)c(=O)n2C)cc1 (stereo not given)
    2.1, 2.0
CCNc1ncc(C(=O)N2CCc3c(nc(C)nc3N3CCCC3)C2)cn1
    -0.5, -6.8
Cc1cccc(C)c1NC(=O)CN(C)C1=NS(=O)(=O)c2ccccc21
    8.5, 5.0
Cc1ncc(CC(=O)N2CCC(N3CCCC(C(=O)NC4CC4)C3)CC2)c(=O)[nH]1 (stereo not given)
    -0.9, -1.8
CCOC(=O)C1=C(C)N(C)C(=O)N(C)C1c1cccc(OC)c1OC (stereo not given)
    -0.6, -2.4
CCOC(=O)C1=C(C)N=c2sc(=Cc3c(F)cccc3Cl)c(=O)n2C1c1ccccc1 (stereo not given)
    -5.0, -9.1
O=C(c1cnc(Nc2ccccc2)nc1)N1CC(c2ccncc2)C1
    1.8, 0.0
N#Cc1c(C(F)(F)F)cc(-c2cccs2)nc1SCC(=O)Nc1ccc(F)cc1
    -7.9, -15.4
O=C(NCc1cccc2c1OCO2)N1CCN(c2ccccc2F)CC1
    1.9, 3.3
CC1=C(C(=O)NC2CCCc3c2cnn3-c2ccc(F)cc2F)OCCO1 (stereo not given)
    -8.4, -6.6
COc1ccc(C)cc1NC(=O)C(=O)c1c(C)n(C)c2ccccc12
    -2.9, -3.6
CCCCc1ccc(N2CCn3c2nc2c3c(=O)n(CC(=O)OC)c(=O)n2C)cc1
    0.5, -2.5
CCNC(=O)N(CCCOC)Cc1c(C)nn(-c2ccccc2)c1N1CCN(CC)CC1
    2.2, 8.9
CC(C)NC(=O)[C@@H]1C[C@H](N)CN1C(=O)CN1CCCCCC1=O
    -13.9, -14.0
COc1ccc(OC(F)F)c(NC(=O)NC(C)C(C)C)c1 (stereo not given)
    0.7, -0.8
Cc1cc(C(=O)Cn2cnc3c2c(=O)n(C)c(=O)n3C)c(C)n1Cc1cccs1
    -2.2, -4.8
Cc1ccccc1C1=NC(C)(CC(=O)NCc2cccc(O)c2)ON1C (stereo not given)
    10.6, 4.7
C=CCc1ccc(O)c(-c2ccc(O)c(CC=C)c2)c1
    -10.4, -17.8
CCOC(=O)c1c(NC(=O)CN2CCN(C(C)C(=O)NC3CC3)CC2)sc2c1CCC(C)C2 (stereo not given)
    -11.6, -11.0
Cc1cccc(-c2nc(C)c(C)c(N3CCN(S(=O)(=O)c4ccc(F)cc4)CC3)n2)c1
    11.9, 20.0
CC(C)Nc1nc(-c2ccccc2Cl)nc2ccccc12
    0.8, 15.6
COc1ccccc1CNC(=O)CN(C)S(=O)(=O)c1cc(C)ccc1OC
    11.3, 7.9
O=C(NCc1n[nH]c(=S)n1-c1ccccc1)c1ccccc1
    13.3, 14.9
COc1ccc(OC)c(C2Nc3ccccc3N=C3CC(c4ccccc4)CC(=O)C32)c1 (stereo not given)
    -4.4, 6.9
CC(NC(=O)C12CC3CC(CC(C3)C1)C2)C(=O)N1CCc2[nH]c3ccccc3c2C1 (stereo not given)
    3.0, 3.3
CO[C@H]1CN(C(C)C)C[C@@H]1NCC(=O)NC1CCCCCCC1
    31.1, 19.3
CCOC(=O)CNC(=O)N(Cc1cccc(OS(=O)(=O)c2ccc(F)cc2)c1)C(C)CC (stereo not given)
    -9.0, -2.3
O=C(NCCn1ccc2ccccc21)NC1CC(=O)N(c2ccc3c(c2)OCCO3)C1 (stereo not given)
    0.6, -3.1
COC(=O)C1=C(C(=O)OC)C2(OC1c1ccc(C)c(Cl)c1)C(=O)c1ccccc1C2=O (stereo not given)
    -14.3, -19.5
CCCN1CCN(c2ncnc3c2nc2n3CCCCC2)CC1
    9.7, 4.2
COc1cccc(CN2CCC2(C)C(=O)Nc2ccc3c(c2)OCO3)c1F (stereo not given)
    9.0, 3.7

# Entries of single compounds, looked up by structure:
# O=C(NCCn1ccc2ccccc21)NC1CC(=O)N(c2ccc3c(c2)OCCO3)C1 (stereo not given) across the screens: NPYLR7 agonist = 0.6; NPYLR7 agonist max-min = -3.1
# COc1ccccc1CNC(=O)CN(C)S(=O)(=O)c1cc(C)ccc1OC across the screens: NPYLR7 agonist = 11.3; NPYLR7 agonist max-min = 7.9
# CC(NC(=O)C12CC3CC(CC(C3)C1)C2)C(=O)N1CCc2[nH]c3ccccc3c2C1 (stereo not given) across the screens: NPYLR7 agonist = 3.0; NPYLR7 agonist max-min = 3.3

# Later entries:
smiles	NPYLR7 agonist	NPYLR7 agonist max-min
O=C1CCC(C(=O)N2CCSCC2)CN1CCN1CCOCC1 (stereo not given)	1.1&-2.1	-5.2&-5.5
C#CCSc1nc2ccccc2n1C(=O)/C=C/c1ccc(OC)cc1	-5.9	-15.9
Cc1cc(C)n(-c2nnc3n2N=C(c2ccccc2)C(C)S3)n1 (stereo not given)	0.2	-1.4
COc1ccc(-n2nnc(S(=O)(=O)c3ccc(C)cc3)c2C)cc1	2.8	-2.5
CN(C)C(=O)C1CCCc2c1ccn2C (stereo not given)	17.5	15.6
Cc1noc(C)c1CC(=O)N1CCCC(CNC(=O)c2cccc3ccccc23)C1 (stereo not given)	4.4	6.3
Cc1cc2cc(CCNC(=O)C3CCCC3)c(=O)[nH]c2cc1C	8.0	6.9
COC(=O)c1ccc(OC(=O)C=Cc2ccc(SC)cc2)cc1	0.6	-1.1
Cc1noc(-c2ccc(C(=O)N3C(C)CC4CCCCC43)cc2)n1 (stereo not given)	0.7	268.4
Cc1ccc(CN(CC(O)COC(C)(C)C)CC2CCCO2)s1 (stereo not given)	18.7	31.2
Cc1ccc(Cl)cc1-n1c(SCC(=O)c2cccc([N+](=O)[O-])c2)nnc1-c1ccco1	15.5	16.2
Cc1cc(Cl)cc2c(N=NC(=O)c3ccncc3)c(O)[nH]c12	-2.3	-3.3
CCOC(=O)Oc1ccc2c(=O)c(-c3ccccc3OC)coc2c1	2.1	-5.1
COC(=O)C1(C(=O)NC(C)c2ccc(O)c(F)c2)CC1 (stereo not given)	0.5	-12.8
CCN(CC1CCCN(CCc2cccc(OC)c2)C1)C(=O)c1ocnc1C (stereo not given)	-0.2	-10.3
Cc1cccn2c(=O)nc(SCC(=O)Nc3ccc(F)cc3)nc12	0.5	-3.6
C=C(C)CN1N=C(c2ccc(Cl)cc2)Cn2c1nc1c2c(=O)n(C)c(=O)n1C	-2.5	-5.4
COc1cccc(C(=O)N2C(C(=O)NCc3ccccn3)COC23CCN(C(=O)c2cccc(F)c2)CC3)c1 (stereo not given)	21.9	30.5
O=C(NCCc1csc(-c2ccncc2)n1)c1cn2c(n1)CNCC2	-2.6	-6.1
COC(=O)C1=C(C)N(C)C(C)=C(C(=O)OC)C1c1cccc(Cl)c1Cl	0.6	2.8
O=C1NC(CC(=O)N2C[C@@H]3[C@@H]4CC[C@@H](C4)[C@@H]3C2)c2ccccc21 (stereo not given in full)	9.5	6.1
Cc1cccc(N2CCN(C(=O)C3CC=CCC3C(=O)O)CC2)c1C (stereo not given)	-5.9	-8.1
Nc1ccccc1-c1nc(-c2ccccc2)nc2ccccc12	-6.8	-12.0
CC(C)CCc1c(O)nc(SCCN2CCOCC2)n(-c2ccccc2)c1=O	3.5	2.2
CC(=O)Nc1ccc(CN2C(=O)C(Cc3ccccc3)ON=C2C2CCCC2)cc1 (stereo not given)	7.2	5.6
CCOc1ccc(-c2nnc(NC(=O)Nc3ccccc3F)o2)cc1	-3.0	-4.4
CCCn1c(SCc2cccc(C)c2F)nc2cc(S(=O)(=O)N3CCOCC3)ccc21	4.5	2.1
CC(C)C(=O)N1CCCN(C(=O)C(C)C)c2ccccc21	4.9	3.4
CCOc1cccc2cc(C(N)=O)c(=Nc3ccccc3OC)oc12	-10.8	-15.0
CC(=O)N1CCC(N2CCN(Cc3ccc(C)o3)C(CCO)C2)CC1 (stereo not given)	-2.3	-5.0
Cc1c(C(=O)NCc2ccc([N+](=O)[O-])cc2)sc(=O)n1Cc1ccc2c(c1)OCO2	-8.6	-8.1
CC1C(=O)N(CCNc2ccc([N+](=O)[O-])cn2)C(=O)C1C (stereo not given)	12.3	1.8
O=C(Cc1cccs1)Nc1ccc(NC(=O)c2ccco2)cc1	2.1	10.3
N#Cc1c2c(n(CC3CCCO3)c1N)CCCC2 (stereo not given)	4.9	5.3
CC[C@H]1CN(C(=O)C2CCN(C(=O)c3ccncc3)CC2)CC[C@@]1(C)O	6.5	15.2
Cc1ccccc1-n1nc(C)c(C(=O)NCc2ccncc2)c1C(C)C	-13.1	-7.8
CC(=NNC(=O)CCn1cnc2ccccc21)c1ccc(Cl)cc1	7.3	3.7
O=C1CC(C(=O)NCCN2Cc3ccccc3OC(c3ccsc3)C2)c2ccccc21 (stereo not given)	8.7	5.8
COCCOC(=NCc1ccccn1)NC(=O)c1cccs1	-7.0	3.9
O=C(Nc1ccc(-n2cncn2)nc1)C1(c2ccc3c(c2)OCCO3)CCCC1	12.5	10.2
Cc1onc(-c2ccccc2)c1C(=O)N1CCc2c([nH]c3ccccc23)C1c1ccccn1 (stereo not given)	-6.6	-13.9
Cc1nn(C)c(C)c1NC(=O)CN	2.4	10.2
CCCNC(=O)CN1CCN(C(=O)c2ccc(-c3ccccc3F)o2)CC1	3.2	3.1
O=C(c1ccc(C(F)(F)F)c(F)c1)N1CCC(Cc2ccc(F)cc2)CC1	0.7	7.9
CCCCc1ccc(C(=O)N(CC(=O)N(Cc2cccn2Cc2ccc(Br)cc2)C2CCCCC2)C(C)C)cc1	-9.6	-15.9
Cc1noc(CCCN(C)C(C)c2ccc(F)c(F)c2)n1 (stereo not given)	3.8	3.5
CN(Cc1ncc[nH]1)C(=O)C1CCN(Cc2ccco2)CC1	2.6	2.2
CNC(=O)CSc1nc2ccccc2c(=O)n1-c1ccc(Cl)cc1	-5.9	-10.3
CC(C)c1nnc(NC(=O)CCC(=O)NC2CC(C)N(c3ccccc3)C2=O)s1 (stereo not given)	9.6	-5.2

# Screening results (PubChem)

# An excerpt; count on the stated rates, not on these rows.
